Screening results (PubChem BioAssay)
A647 autofl = compound fluoresces in the A647 spectral region | max dye-equivalent concentration, M | 59,000 tested, under 10 active | Compound fluorescence, A647 channel (570/671 nm), Tris buffer; active means above 1 µM dye equivalent; inconclusive means 0.1 to 1 µM; inactive means 0.1 µM or less;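 note: values scaled relative to a standard on each plate; highest value over a series up to 38 µM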
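Buffer was dispensed, compounds and Alexa 647 standards were pin-transferred, and plates sat 15 min at room temperature. Intensity at 570/671 nm was then converted to dye-equivalent concentration using the plate's A647 standard curve.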
A488 autofl = compound fluoresces in the A488 spectral region; max dye equivalency, M; actives 0.1% (n = 59,000); compound autofluorescence, A488 spectral region, dye equivalency; stronger effect = higher value; AID 591; active = above 10 nM dye equivalent; inconclusive = 1 to 10 nM; inactive = 1 nM or less; about half of its hits are not listed in these tables;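 note: highest value over a series up to 38 µM; compound alone in buffer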
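Readout is A488 dye-equivalent concentration, calibrated by a per-plate six-point Alexa 488 series. Compounds in 100 mM Tris buffer pH 8.0 were incubated 15 min at room temperature. Plates were imaged using 480 nm excitation/540 nm emission filters.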
Resorufin autofl = compounds fluorescent in resorufin spectral region; Compound fluorescence, resorufin region 547/598 nm, buffer; stronger effect = higher value; max dye-equivalent concentration, M; actives 0.04% (n = 59,000); AID 588; active = above 10 nM dye equivalent; inconclusive = 1 to 10 nM; inactive = 1 nM or less; a few of its hits are not listed in these tables; note: highest value over a series up to 38 µM
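Compounds in 100 mM Tris, pH 8.0, incubated 15 min at room temperature, then fluorescence read at 547 nm excitation/598 nm emission. Signal converted to dye-equivalent concentration via an on-plate six-point resorufin standard curve, per compound concentration.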
TSHR agonist = TSH receptor (human) agonism | P16473 | HEK293-CNG-TSHR cells (CNG channel as cAMP sensor), membrane potential dye, cAMP | Potency, µM (doses to about 57.1 µM), for inactives: at the highest dose activation, hits mostly activators | actives 0.48% (n = 73,000); active = well fitted activation curve of enough size with the parental cells flat; inconclusive = any curve in the parental cells; inactive = parental cells flat and receptor cells flat or falling; note: potency is the fitted concentration of half-maximal effect; % of control where 0% means no effect; weak receptor curves with flat parental cells got no call and are not listed
Target sequence (P16473 whole entry, looked up): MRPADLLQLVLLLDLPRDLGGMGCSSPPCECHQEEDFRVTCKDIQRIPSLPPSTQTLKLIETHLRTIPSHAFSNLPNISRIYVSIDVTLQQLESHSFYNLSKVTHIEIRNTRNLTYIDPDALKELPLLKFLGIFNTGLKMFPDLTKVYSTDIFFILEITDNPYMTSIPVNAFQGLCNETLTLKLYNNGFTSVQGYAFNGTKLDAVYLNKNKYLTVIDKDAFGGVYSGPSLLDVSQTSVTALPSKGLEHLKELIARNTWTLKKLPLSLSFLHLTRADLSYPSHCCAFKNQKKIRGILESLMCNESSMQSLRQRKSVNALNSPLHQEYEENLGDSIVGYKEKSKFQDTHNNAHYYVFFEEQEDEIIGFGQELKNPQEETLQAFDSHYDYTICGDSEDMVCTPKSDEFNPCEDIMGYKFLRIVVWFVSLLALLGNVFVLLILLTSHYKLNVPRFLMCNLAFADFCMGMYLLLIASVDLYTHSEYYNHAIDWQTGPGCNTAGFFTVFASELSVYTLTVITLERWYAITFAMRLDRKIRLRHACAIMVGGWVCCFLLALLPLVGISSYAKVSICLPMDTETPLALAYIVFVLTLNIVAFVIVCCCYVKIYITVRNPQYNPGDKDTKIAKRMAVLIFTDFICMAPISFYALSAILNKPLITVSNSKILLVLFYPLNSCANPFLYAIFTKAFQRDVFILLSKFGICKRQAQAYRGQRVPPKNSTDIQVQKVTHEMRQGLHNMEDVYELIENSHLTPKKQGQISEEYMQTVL
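HEK 293 cells stably expressing TSHR and a cAMP-gated CNG channel; parental CNG-only cells as counterscreen. Cells preloaded 60 min with membrane potential dye plus 100 uM RO 20-1724, then compound 30 min; fluorescence read at 590 nm.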
AID923 = qHTS Assay for Allosteric/Competitive Inhibitors of Caspase-1: Spectroscopic Profiling in AFC Spectral Region; compound fluorescence, AFC spectral region (405/520 nm); almost no hit is shown here; Potency, µM (highest dose often 57.5 µM), for inactives: at the top dose fluorescence increase, actives largely listed as activators; actives 1.1% (n = 75,000); active = well fitted activation curve with a large enough effect; inconclusive = small, poorly fitted or top-dose-only effect;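 note: potency is the fitted concentration of half-maximal effect; 0% is about no effect; scaled to a free AFC standard on each plate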
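Titrations up to 57 uM read every 20 sec for 3 min (405/520 nm) with 50 nM caspase 1 and 5 uM Ac-WEHD-AFC, pH 7.5 HEPES buffer. Fluorescence-vs-time intercept gave baseline, scaled against on-plate AFC standard.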
* marks the source's active call; other numbers are inactive results; i = inactive; ? = inconclusive; nt = not tested or not shown; & = joins results of further samples; [ ] = another dose, or the depositor's remark. Only part of the results is shown (hit frequency here may not be typical).

SMILES	A647 autofl	A488 autofl	Resorufin autofl	TSHR agonist	AID923
CCc1c(C)nc(N)n2c(SCC(=O)N3CCCc4ccccc43)nnc12	4.6e-08	i	i	-2%	-2.4%
Cc1ccc2c(c1)c1ncnc(N3CCN(c4ccccc4)CC3)c1n2C	1e-09	i	i	?	2.5%
CCCc1[nH]nc2c1C(C1CCCCC1)C(C#N)=C(N)O2 (stereo not drawn)	nt	nt	nt	-3%	-5.0%
CC(C)C(c1nnnn1C1CCCCC1)N1CCOCC1 (stereo not drawn)	4.8e-09	i	i	0%	0.6%
N#Cc1ccc(CN2CCC3(CC2)CCN(C(=O)c2ccncc2)CC3)cc1	1e-09	i	i	7%	5.1%
Cn1c2c(c(=O)n(C)c1=O)C1c3ccccc3OCC1C(C)(C)O2 (stereo not drawn)	nt	nt	nt	23%	-0.5%
NCCNCCNCCNCCN	nt	nt	nt	5%	5.2%
O=S(=O)(NC1=NCCCCC1)c1cccs1	1e-09	i	i	?	-2.5%
Cc1cc(NS(=O)(=O)c2ccc(NC(=O)Nc3cccc(Cl)c3)cc2)no1	1e-09	i	i	-14%	-1.2%
CN1CCN(C(=O)c2cc3c(n(-c4ccccc4)c2=O)CC(C)(C)CC3=O)CC1	1e-09	i	i	5%	0.4%
C=C1C(C(=O)N2CCOCC2)C1C(=O)N1CCOCC1 (stereo not drawn)	4e-09	i	i	-3%	-0.6%
N#CC1=C(N)Oc2cc(O)ccc2C1C1CCCCC1 (stereo not drawn)	nt	nt	nt	2%	8.5%
COC(=O)c1ccccc1NC(=O)N1c2ccccc2CC1C (stereo not drawn)	1.4e-08	i	i	?	1.7%
CC1C(C#N)=C(N)OC2=C1C(=O)CC(C)(C)C2 (stereo not drawn)	nt	nt	nt	1%	1.0%
CCOC(=O)c1ccc(N2C(=O)c3n[nH]c(C)c3C2c2ccccc2)cc1 (stereo not drawn)	2.2e-08	i	i	?	-1.0%
CN(C)C(=O)CN1C(=O)C2CCCCN2C(=O)c2ccccc21 (stereo not drawn)	2.9e-08	i	i	-6%	0.2%
Cc1nn(-c2nc3ccccc3[nH]2)c(N)c1-c1ccccc1	2.5e-08	i	i	14%	-1.7%
Nc1nonc1-c1nc2ccccc2n1Cc1ccc(Cl)cc1	nt	nt	nt	?	1.3%
CCN(CC)CCCNC(=O)c1cc2c(=O)n(C)c3ccccc3c2n1C	nt	nt	nt	18%	-0.7%
CCOC(=O)N1CCN(C(=O)c2oc3ccc(S(=O)(=O)N4CCCCCC4)cc3c2C)CC1	2.1e-09	i	i	10%[11.4 µM]	-2.6%
COC(=O)c1cccc(NC(=O)CN2CCOCC2)c1	1.6e-08	i	i	-1%	-0.3%
CCOC(=O)Nc1ccc2c(c1)ncn2C1CCCCC1	1e-09	i	i	12%	1.1%
OC(COCC1COc2ccccc2O1)CN1CCc2ccccc2C1 (stereo not drawn)	2.5e-08	i	i	16%	-2.6%
C[C@H](O/N=C1/[C@H]2O[C@@H]2[C@@H](O)[C@H]2[C@H]1CCn1c(=O)n(-c3ccccc3)c(=O)n12)c1cn([C@H](CO)Cc2ccccc2)nn1	nt	nt	nt	-2%&-6%[11.4 µM]	-3.4%&-5.0%[11.5 µM]
COc1cccc(C(=O)OC2CCCN(C)C2)c1 (stereo not drawn)	9.8e-08	i	i	nt	nt
O=C(NC(=O)c1ccc(Cl)c(Cl)c1)OC1CCS(=O)(=O)C1 (stereo not drawn)	4.8e-08	i	i	nt	-1.0%
COc1ccccc1C1CC(c2ccc(C)cc2)Nc2ncnn21 (stereo not drawn)	1e-09	i	i	?	-0.3%
Cc1ccc(NC(=O)C2CCCN(S(=O)(=O)c3c(C)noc3/C=C/N(C)C)C2)cc1F (stereo not drawn)	1.3e-08	i	i	nt	3.4%
CCc1c(C)nc2ncnn2c1Nc1ccc(C#N)c(Cl)c1	1e-09	i	i	1%	0.4%
CCOC(=O)C1=C(C)N=C2SC(CC)C(=O)N2C1c1cccc(F)c1 (stereo not drawn)	1e-09	i	i	?	-1.4%
Cc1ccc(-c2nnc(COc3cccc(-n4cnnn4)c3)o2)cc1	1e-09	i	i	9%	-0.1%
COc1cccc(N(CC(=O)NCCSc2ccccc2)S(C)(=O)=O)c1	8.2e-09	i	i	?	1.5%
CCOC(=O)c1c(CN2CCOCC2)n(C)c2cc(Br)c(O)c(CN(C)C)c12	nt	nt	nt	9%[11.4 µM]	0.1%
CC[C@@H]1[C@H]2CCCCN3[C@@H]2[C@@H](C[C@H]3[C@@H]2C[C@H](C)C(=O)O2)[C@@H]2[C@H]1OC(=O)[C@H]2C	3.1e-09	i	i	3%	nt
Cc1noc(C)c1C(=O)Nc1nnc(-c2ccccc2)s1	1.4e-09	i	i	-9%	3.8%
O=C(c1ccc(S(=O)(=O)N2CCOCC2)cc1)N1CCN(c2ccccc2F)CC1	1e-09	i	i	3%	-0.9%
Cc1ccc(S(=O)(=O)OCC(=O)O)cc1	1e-09	i	i	0%[11.4 µM]	1.6%[11.5 µM]
Cn1c(Cc2csc(N)n2)nnc1SCC(=O)NC1CCCCC1	2.5e-08	i	i	nt	0.7%
COc1ccccc1-c1cncnc1N(C)Cc1ccco1	6.2e-09	i	i	nt	5.0%
O=C(CS(=O)(=O)c1cn(Cc2ccc(F)cc2)c2ccccc12)N1CCCCC1	1.4e-08	i	i	8%	1.3%

2 consecutive compounds from above, for reference:
SMILES	A647 autofl	A488 autofl	Resorufin autofl	TSHR agonist	AID923
Cc1ccc(-c2nnc(COc3cccc(-n4cnnn4)c3)o2)cc1	1e-09	i	i	9%	-0.1%
COc1cccc(N(CC(=O)NCCSc2ccccc2)S(C)(=O)=O)c1	8.2e-09	i	i	?	1.5%

Further compounds
SMILES	A647 autofl	A488 autofl	Resorufin autofl	TSHR agonist	AID923
CCCC(C(=O)NCC1CCCO1)N(Cc1ccco1)C(=O)CNS(=O)(=O)c1ccc(F)cc1 (stereo not drawn)	1e-09	i	i	-1%	-0.7%
COc1ccc(C2C(=O)N(CCc3ccccc3)CC(=O)N2C2CCCC2)cc1 (stereo not drawn)	9.3e-09	i	i	nt	0.7%
O=C(Cn1c(C(=O)N2CCN(C3CCCCC3)CC2)cc2sccc21)c1ccccc1	1.3e-08	i	i	-9%	1.8%
Cc1noc(C)c1S(=O)(=O)N1CCC(Cc2ccccc2)CC1	2.2e-09	i	i	?	-0.8%
COc1ccc2c(C)c(C(=O)NCC(C)O)oc2c1OC (stereo not drawn)	nt	nt	nt	20%	4.3%
COC(=O)[C@@H]1C[C@H]1[C@@H](NC(=O)c1cc(C)nn1C)c1ccccc1	nt	nt	nt	6%	-1.6%
O=C(Nc1ccon1)c1cnc2sccn2c1=O	1.9e-08	i	i	-5%	-1.0%
CN1C(=O)c2c(sc3c2CCCC3)NC1c1ccccc1O (stereo not drawn)	1e-09	i	i	nt	nt
Cc1cc(NC(=O)c2cnn3cccnc23)n(-c2ccccc2)n1	1.5e-08	i	i	-2%	-1.2%
O=C(NCc1ccccn1)c1ccc(Cl)cc1Cl	6e-09	i	i	7%	-1.8%
CC(=O)N1CCN(C(=O)CCc2c[nH]c3ccccc23)CC1	2.6e-08	i	i	21%	1.7%
CC(C)(C)OC(=O)N1CCOCCOCCN(C(=O)OC(C)(C)C)CCOCC1	2.4e-09	i	i	3%	-0.6%
CCn1c(COc2ccccc2)nnc1SCC(=O)Nc1cc(OC)ccc1OC	5.9e-09	i	i	nt	0.0%
O=C(O)c1ccccc1C(=O)OCc1ccccc1	nt	nt	nt	-3%	2.7%
Clc1ccccc1C(Nc1cnccn1)Nc1cnccn1	1e-09	i	i	-2%[11.4 µM]	0.6%[11.5 µM]
COc1ccc(N2C(=O)CC(Cc3ccccc3)C2=O)cc1 (stereo not drawn)	1.9e-08	i	i	nt	0.5%
Cc1cc(C)cc(-c2nnc(SCC(=O)NCc3cccs3)o2)c1	2.1e-08	i	i	?	-2.5%
CCCCOc1ccc(NC(=O)CN2CCN(C(=O)OCC)CC2)cc1	1e-09	i	i	2%	0.6%
CC1(C)CC(=O)c2c(O)cc(O)cc2O1	1e-09	i	i	3%	-0.4%
COc1ccc(NC(=O)CSc2nnc(CN3CCOCC3)n2-c2ccccc2)cc1Cl	1.6e-08	i	i	14%	-0.2%

An excerpt from above in order of SMILES length, falling.
SMILES	A647 autofl	A488 autofl	Resorufin autofl	TSHR agonist	AID923
CC(C)(C)OC(=O)N1CCOCCOCCN(C(=O)OC(C)(C)C)CCOCC1	2.4e-09	i	i	3%	-0.6%
CCn1c(COc2ccccc2)nnc1SCC(=O)Nc1cc(OC)ccc1OC	5.9e-09	i	i	nt	0.0%
CCCCOc1ccc(NC(=O)CN2CCN(C(=O)OCC)CC2)cc1	1e-09	i	i	2%	0.6%
CC(=O)N1CCN(C(=O)CCc2c[nH]c3ccccc23)CC1	2.6e-08	i	i	21%	1.7%
COc1ccc(N2C(=O)CC(Cc3ccccc3)C2=O)cc1 (stereo not drawn)	1.9e-08	i	i	nt	0.5%

Remaining list, next part
SMILES	A647 autofl	A488 autofl	Resorufin autofl	TSHR agonist	AID923
O=C(NC1CCCc2ccccc21)C1CCN(S(=O)(=O)N2CCCCCC2)CC1 (stereo not drawn)	5e-09	i	i	22%	-2.4%
Fc1ccc(-c2nn3c(C4COc5ccccc5O4)nnc3s2)cc1 (stereo not drawn)	4e-09	i	i	?	0.6%
CN1CCN(c2cc(=O)n(-c3ccc(Cl)cc3)c(=O)[nH]2)CC1	nt	nt	nt	2%	-0.5%
Oc1c(CN2CCOCC2)ccc(CN2CCOCC2)c1O	1e-09	i	i	3%[11.4 µM]	-0.6%[11.5 µM]
CC1(C(=O)NCCc2c[nH]c3ccccc23)C=CCN1C(=O)c1ccccc1 (stereo not drawn)	nt	nt	nt	8%	-0.1%
COC(=O)[C@@]1(Cc2ccc(F)cc2)[C@H]2c3cc(C(=O)N4CCCC4)n(CCc4ccc(OC)c(Br)c4)c3C[C@H]2CN1C(=O)c1ccccc1	nt	nt	nt	?	1.3%
CCOC(=O)c1c(C)[nH]c(C(=O)COC(=O)c2cnc(C)cn2)c1C	1.8e-08	i	i	-5%	-0.1%
Cc1c(C(=O)OCC(=O)c2ccc3c(c2)OCCO3)oc2ccccc12	3.2e-08	i	i	?	0.5%
CCOC(=O)N1CCC(NC(=O)Cn2c3c(c(-c4ccccc4Cl)cc2=O)CCC3)CC1	nt	nt	nt	12%	3.7%
COC(=O)c1ccccc1NC(=O)c1cnn2c(C(F)F)cc(C3CC3)nc12	4.6e-09	i	i	?	3.5%
CCOC(=O)c1nnn(-c2nonc2-n2cccc2)c1CN1CCC(C)CC1	8.8e-09	i	i	9%	0.3%
CCc1nc(SCC(=O)Nc2cc(C)on2)c2c(C)c(C)sc2n1	2.7e-08	i	i	?	-1.0%
Cc1ccccc1-n1nnnc1-c1ccccc1	nt	nt	nt	?	1.7%
Cc1ccc2c(c1)N(CC(=O)c1cccc(Cl)c1)C(=O)C(C)O2 (stereo not drawn)	4.1e-08	i	i	?	0.8%
Cn1c(=O)n(CC(=O)N2CCOCC2)c2ccccc21	7.4e-09	i	i	7%	-0.5%
CCc1c(C)sc(NC(=O)c2cc(-c3ccco3)on2)c1C#N	1.9e-08	i	i	?	4.0%
COc1ccc(Nc2oc(-c3cccs3)nc2C#N)cc1	1e-09	i	i	nt	nt
Cc1ccc(-c2nnn(CC(=O)N(c3cccc(F)c3)C(C(=O)NC3CCCC3)c3ccco3)n2)o1 (stereo not drawn)	8.3e-09	i	i	18%	-1.6%
